Compound activity deposited in PubChem by ICCB-Longwood Screening Facility, Harvard Medical School.
HCMV UL50-53 inh – inhibitors of HCMV UL50-UL53 nuclear egress complex interaction. inhibition, % (test concentration not listed). 190,000 tested, 0.15% active. HTRF UL50-UL53 interaction, normalized percent inhibition;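 active = both replicates at 50% or more, plus weaker picks with an unusually low signal ratio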;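 also: stock transfer was 100 nL into about 20 µL; 0% = negative control wells and 100% = wells with untagged competitor protein; inactives centre near -12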
Sa growth inh – blocks Staphylococcus aureus growth; S. aureus RN4220 growth, OD600, 20 h, 42 °C; active compounds read low; relative growth, % (concentration not given with the values); 170,000 tested, 0.53% active; AID 720641;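 active = growth at 42 °C up to 50% and 20 or more points under that at 30 °C, or under 10% at both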;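 also: 300 nL library stock went into each well; scaled to the means of positive and negative controls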
GIV Gai3 FP – GIV-Galpha-i interaction inhibition; Galpha-i3/FITC-GIV peptide fluorescence polarization, 90 min; active compounds read low; scaled: aluminum fluoride 0%, vehicle 100%; percent of control (FP), % (no concentration beside the values); P08753; 210,000 tested, 0.42% active;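 active = replicate mean at 85% of control or lower, very high polarization wells dropped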;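 also: wells of about 15 µL received 100 nL stock; the first replicate is given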
Target sequence (P08753 whole entry, looked up): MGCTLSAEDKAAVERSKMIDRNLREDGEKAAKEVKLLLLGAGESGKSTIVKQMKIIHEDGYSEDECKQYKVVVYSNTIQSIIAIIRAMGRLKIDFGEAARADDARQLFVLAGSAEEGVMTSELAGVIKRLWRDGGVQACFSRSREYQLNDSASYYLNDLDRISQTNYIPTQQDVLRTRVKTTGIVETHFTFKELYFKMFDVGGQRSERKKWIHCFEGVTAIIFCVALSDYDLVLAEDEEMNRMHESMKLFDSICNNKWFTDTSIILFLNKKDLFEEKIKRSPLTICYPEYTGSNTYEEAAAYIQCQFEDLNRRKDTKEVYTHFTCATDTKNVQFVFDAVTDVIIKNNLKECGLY
Sa growth inh second temp – recorded beside Sa growth inh, whose call it bears; relative growth, %; measured here: growth at 30 °C;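 optical density after 20 h as mean of two plates; 100% = untreated growth and lower means inhibition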
The depositor's hits bear a star; · = no result given; & = joins results of further samples.

Sample of the layout (two entries):
SMILES | HCMV UL50-53 inh | Sa growth inh | Sa growth inh second temp | GIV Gai3 FP
CCOC(=O)/C(C#N)=C/c1ccc(OC)cc1OC | -11 | 100 | 98 | 105
Cc1ccc(NC(=O)c2nc(S(C)(=O)=O)ncc2N(Cc2ccco2)Cc2ccco2)cc1 | -2 | 92 | 88 | 97

The listing, from the start:
SMILES | HCMV UL50-53 inh | Sa growth inh | Sa growth inh second temp | GIV Gai3 FP
CCOC(=O)/C(C#N)=C/c1ccc(OC)cc1OC | -11 | 100 | 98 | 105
Cc1ccc(NC(=O)c2nc(S(C)(=O)=O)ncc2N(Cc2ccco2)Cc2ccco2)cc1 | -2 | 92 | 88 | 97
O=C(Cn1c(=O)nc(-c2ccccc2)c2ccccc21)NC1CCCCC1 | -66 | · | · | 107
CCOc1ccc(CN2CCc3nc(Nc4cccc(OC)c4)ncc3C2)cc1 | -12 | · | · | 107
CCOC(=O)Cc1cc(C(=O)Nc2ccc(Br)cc2)sc1-c1ccc(C)cc1 | 3 | 108 | 98 | 98
CC(=O)NCCc1nc2ccccc2n1CCc1ccccc1 | · | 97 | 96 | 96
O=C(NCCN1CCOCC1)c1ccc(-n2c(=S)[nH]c3ccccc3c2=O)cc1 | -21 | 97 | 82 | 101
O=C(O)c1ccccc1C(=O)NCC(O)COc1ccc2ccccc2c1 (stereo unspecified) | -25 | 99 | 88 | 101
Cc1nn2c3ccccc3nc2c2ccccc12 | -34 | 84 | 85 | 103
O=C(Nc1ccc(Oc2cccc(C(F)(F)F)c2)nc1)c1ccco1 | 2 | 88 | 74 | 102
Cc1ccc(-c2nc(CS(=O)(=O)CC(=O)Nc3c(C)cccc3C)c(C)o2)cc1 | -1 | 98 | 89 | 101
Cc1cc(C)cc(NC(=O)COC(=O)C2CC3C=CC2C3)c1 (stereo unspecified) | -21 | 99 | 97 | ·
COc1ccc(CCNC(=O)c2ccc3nc(CCc4ccccc4)oc3c2)cc1OC | · | 81 | 98 | 102
O=C(Nc1ccc2c(c1)S(=O)(=O)c1cc(NC(=O)C3CCCCC3)ccc1-2)C1CCCCC1 | · | 87 | 83 | 104
CC1(C)N=C(N)N=C(N)N1c1ccccc1 | · | 104 | 80 | 104
COC(=O)c1cc2c(cc1NC(=O)C1CCCN(S(=O)(=O)N3CCOCC3)C1)OCO2 (stereo unspecified) | -6 | 105 | 101 | 112
Cc1nn(CC(O)Cn2c3c(c4ccccc42)CCN(C)C3=O)c(C)c1Br (stereo unspecified) | · | 120 | 73 | 111
O=C(O)Cc1c(C(=O)O)[nH]c2ccccc12 | -16 | 94 | 88 | ·
Cc1nn(S(=O)(=O)N(C)C)c(C)c1C | -18 | 106 | 85 | 99
O=C(O)C1c2ccccc2-c2ccccc21 | -31 | 94 | 108 | ·
Cc1ccc(NC(=O)c2cnc3ccc(C)cn3c2=O)cc1 | -54 | · | · | 102
CC1C/C(=N\NC(N)=O)CC(C)(C)C1 (stereo unspecified) | 6 | 99 | 95 | 111
COc1cccc(-n2ccn(CC(=O)NCCc3ccccc3)c(=O)c2=O)c1 | -31 | 87 | 81 | 102
COc1ccc(C2CCCCCN2C(=O)Cc2noc3ccccc23)cc1 (stereo unspecified) | 3 | 102 | 108 | ·
CCC(C)NC(=O)CSc1nc2ccccc2c(=O)n1CC1CCCO1 (stereo unspecified) | 0 | 82 | 80 | 100
(listing goes on)
SMILES | HCMV UL50-53 inh | Sa growth inh | Sa growth inh second temp | GIV Gai3 FP
CC(=O)Nc1ccc(C(=O)Nc2ccc(S(C)(=O)=O)cc2)cc1 | -29 | 111 | 98 | ·
CCC(Cc1ccccc1)NC(=O)c1c[nH]c2ccc(S(=O)(=O)N3CCC(C)CC3)cc2c1=O (stereo unspecified) | · | 103 | 88 | 101
CC(C)c1cc(-c2nc(-c3ccc(Br)cc3)no2)n[nH]1 | · | 108 | 87 | 103
COc1ccc(-c2nc(CNC(=O)NC3CCCCC3)c(C)o2)c(OC)c1 | · | 100 | 90 | 106
COCC(C)NC(=O)c1cnc2sc3c(n2c1=O)CCCC3 (stereo unspecified) | -18 | · | · | 103
CCOC(=O)c1c(C)c(-c2ccccc2)n(CC(=O)NC2CCCCC2)c1C | 9 | 92 | 87 | 103
CCc1nn(CC(=O)NCc2ccccc2Cl)c(=O)c2cccn12 | 8 | 119 | 93 | 103
Nn1c(SCCOc2ccccc2)nnc1-c1ccccc1 | 22 | 99 | 98 | ·
COC(=O)c1cnc(N2CCN(c3ccccc3F)CC2)c2ccccc12 | · | 104 | 95 | 101&110
O=C(CN1C(=O)C2(OCCO2)c2ccccc21)c1ccc(Cl)cc1 | -4 | · | · | 99
CCc1cc(=O)oc2c(C)c3c(cc12)CN(Cc1ccccc1)CO3 | · | 82 | 82 | 101
O=S(=O)(c1ccc(-c2ccno2)s1)N1CCCC1 | -72 | 85 | 87 | 104
CCn1c(-c2nc3ccccc3n2CC)nc2ccccc21 | 10 | 95 | 88 | ·
O=C(c1cc(-c2ccc3c(c2)OCO3)on1)N1CCCC1c1ccccc1Cl (stereo unspecified) | 0 | · | · | 104
CC(NC(=O)C1CCN(S(=O)(=O)c2ccc3nc4c(c(C(=O)O)c3c2)CCCC4)CC1)c1ccccc1 (stereo unspecified) | -17 | 91 | 102 | 107
Cc1ccccc1CN1C(=O)c2ccccc2Sc2ccc(C(=O)NC3CCCCC3)cc21 | · | 115 | 96 | 102
CC1=NN(C(=O)C(C)C)C(O)(C(F)(F)F)C1 (stereo unspecified) | 0 | 108 | 110 | 102
CC(C)Cc1nn2c(=O)cc(COC(=O)c3ccc(NC(=O)c4cccs4)cc3)nc2s1 | · | 87 | 101 | 106
Cc1ccc(-c2cc(C(F)(F)F)n3nc(C(=O)N4CCN(c5ccccc5)CC4)cc3n2)cc1 | 11 | 82 | 96 | ·
CCN1CCCC1CNC(=O)CCCN1C(=O)CSc2c1c(C)nn2-c1ccccc1 (stereo unspecified) | -9 | · | · | 110
COCCn1c(C)cc(O)c(C(c2ccncc2)N2CCCCC2)c1=O (stereo unspecified) | -35 | 92 | 87 | 107
COCCN1CN(S(=O)(=O)c2ccccc2)c2nc3ccccc3nc21 | -24 | 129 | 91 | 105
Cc1ccc(C)c(N=Cc2ccc(C#N)cc2)c1 | -16 | 93 | 88 | ·
COc1ccc(CC(C(=O)Nc2ccccc2)C(C)C(=O)O)cc1 (stereo unspecified) | -11 | 91 | 91 | 109
CCOC(=O)c1[nH]cnc1C(=O)N1CCOCC1 | -4 | 105 | 76 | 97

Some entries already given, reduced to Sa growth inh, Sa growth inh second temp and GIV Gai3 FP.
mol | Sa growth inh | Sa growth inh second temp | GIV Gai3 FP
CCC(C)NC(=O)CSc1nc2ccccc2c(=O)n1CC1CCCO1 (stereo unspecified) | 82 | 80 | 100
CC(=O)Nc1ccc(C(=O)Nc2ccc(S(C)(=O)=O)cc2)cc1 | 111 | 98 | ·
CCC(Cc1ccccc1)NC(=O)c1c[nH]c2ccc(S(=O)(=O)N3CCC(C)CC3)cc2c1=O (stereo unspecified) | 103 | 88 | 101
CC(C)c1cc(-c2nc(-c3ccc(Br)cc3)no2)n[nH]1 | 108 | 87 | 103
COc1ccc(-c2nc(CNC(=O)NC3CCCCC3)c(C)o2)c(OC)c1 | 100 | 90 | 106

Sorted by value in Sa growth inh second temp (falling): 3 of the compounds above.
Molecule	Sa growth inh	Sa growth inh second temp	GIV Gai3 FP
Nn1c(SCCOc2ccccc2)nnc1-c1ccccc1	99	98	·
COCCN1CN(S(=O)(=O)c2ccccc2)c2nc3ccccc3nc21	129	91	105
CCC(Cc1ccccc1)NC(=O)c1c[nH]c2ccc(S(=O)(=O)N3CCC(C)CC3)cc2c1=O (stereo unspecified)	103	88	101

Next part:
SMILES | HCMV UL50-53 inh | Sa growth inh | Sa growth inh second temp | GIV Gai3 FP
Cc1cccc(N(C)S(=O)(=O)c2cccc3nsnc23)c1 | · | 129 | 102 | 102
CCOC(=O)c1ccc(N2CC3=C(C2=O)C(c2ccc(OC)cc2)NC(=O)N3C)cc1 (stereo unspecified) | · | 87 | 81 | 102
CCCCCNC(=O)C(=O)NCC(c1ccc2c(c1)OCO2)N1CCOCC1 (stereo unspecified) | · | 88 | 92 | 95
CC(=O)Nc1nccc(-c2cc(-c3cccc(C(F)(F)F)c3)no2)n1 | · | 109 | 91 | 101
CC1(C)CC(=O)C2=C(C1)NC(=S)NC2C1CCCCC1 (stereo unspecified) | -24 | 90 | 88 | 105
COC(=O)c1cc(S(=O)(=O)NCC2CCN(CCc3cccs3)CC2)cn1C | 8 | 108 | 96 | 107
CC(C)C(NS(=O)(=O)c1ccccc1)C(C)C | -17 | 81 | 90 | 95
Cc1c(C(=O)N2CCN(Cc3nc4ccccc4s3)CC2)oc2ccccc12 | -12 | 114 | 86 | ·
COc1ccc(CCn2c3c(c(=O)[nH]c2=O)C(NC(=O)c2ccc(Cl)cc2)(C(F)(F)F)C(=O)N3)cc1OC (stereo unspecified) | -20 | 105 | 87 | 100
Cc1cc(=O)n2[nH]c(-c3sc4ccc(Cl)cc4c3C)cc2n1 | 12 | 85 | 93 | 105
COc1ccc(NC(=O)Cn2nc3ccc(SCc4ccc(Cl)cc4)nn3c2=O)cc1Cl | -18 | · | · | 100
O=C(Nc1cccc(OC(=O)N2CCOCC2)c1)N1CCCCC1 | 8 | 108 | 96 | 107
Cc1ccc2c(c1)C(Cc1oc3ccc(C)cc3c1C)C(=O)N2 (stereo unspecified) | -17 | · | · | 108
COc1ccc(-n2cc(C(=O)NCCc3c[nH]c4ccccc34)nn2)cc1 | -21 | 85 | 83 | 101
C=CCNc1nc2c(C)cccn2c(=O)c1/C=C1\SC(=S)NC1=O | · | 86 | 83 | -42*
COc1cccc(N2C(=O)CSC23C(=O)N(CC(=O)NCc2ccc(C)cc2)c2ccccc23)c1 (stereo unspecified) | · | 98 | 90 | 105
CSC(=NC#N)/N=c1/nc(SC)n(C)n1C | -5 | 88 | 89 | 103
FC(F)(F)c1ccc(-c2nnc(-c3ccc4nccnc4c3)o2)cc1 | -152 | 109 | 93 | 105
COCC(=O)N1c2nc(-c3ccco3)nn2C2(CCCCC2)[C@@H]2CCCC[C@@H]21 | -13 | 107 | 88 | 100
CCCCSc1nnc2c(n1)OC(/C=C/c1ccc([N+](=O)[O-])o1)Nc1ccccc1-2 (stereo unspecified) | -23 | · | · | 123
C=CCNC(=S)N/N=C1\CC2CC=CC12 (stereo unspecified) | -31 | 116 | 88 | ·
O=C1CCCc2cc(S(=O)(=O)NCC3CCC(C(=O)NCc4cccnc4)CC3)ccc2N1 (stereo unspecified) | -24 | · | · | 109
CS(=O)(=O)c1ccc2c(c1)sc1nc(-c3ccccc3Cl)cn12 | 3 | 114 | 110 | ·
O=C(Cc1coc(-c2ccc(F)cc2)n1)N1CCOCC1 | -11 | 98 | 88 | 100
CCOC(=O)c1[nH]c(C)c(S(=O)(=O)NCC2CCCO2)c1C (stereo unspecified) | -12 | · | · | 111

Some of these compounds in order of length of the SMILES, rising.
SMILES | HCMV UL50-53 inh | Sa growth inh | Sa growth inh second temp | GIV Gai3 FP
Cc1ccc(C)c(N=Cc2ccc(C#N)cc2)c1 | -16 | 93 | 88 | ·
O=C(O)Cc1c(C(=O)O)[nH]c2ccccc12 | -16 | 94 | 88 | ·
O=C(Nc1cccc(OC(=O)N2CCOCC2)c1)N1CCCCC1 | 8 | 108 | 96 | 107

Remaining list, next part
SMILES | HCMV UL50-53 inh | Sa growth inh | Sa growth inh second temp | GIV Gai3 FP
O=C(CC12CC3CC(CC(C3)C1)C2)NCC(=O)Nc1cccnc1 | -29 | 85 | 86 | ·
CCC(C(=O)N1CCC(C)CC1)N1C(=O)CCCc2ccccc21 (stereo unspecified) | -11 | · | · | 111
Cc1ccc2oc(C(=O)Nc3ccc(S(=O)(=O)Nc4nccc(C)n4)cc3)cc(=O)c2c1 | -13 | 104 | 87 | 105
CCOc1ccccc1C(=O)N=C1NC(=O)CS1 | -5 | 120 | 81 | 105
O=C1CC(=O)Nc2cc(S(=O)(=O)Nc3ccc(F)cc3F)ccc2N1 | -31 | · | · | 104
CC1(C(=O)Nc2cccc(Br)c2)CC(=O)N=C2C=CC=CN21 (stereo unspecified) | -16 | 108 | 96 | 110
CN(C)C(CNC(=O)c1cc(-c2ccc3c(c2)CCCC3)on1)c1ccccc1 (stereo unspecified) | -22 | · | · | 108
COC(=O)c1cc(-c2ccc(Cl)cc2)n[nH]1 | -20 | 127 | 98 | 102
CCc1ccccc1NC(=O)c1ccc2c(c1)CCN2S(C)(=O)=O | -12 | 102 | 96 | 98
O=C(COC(=O)C1CCCCN1S(=O)(=O)c1ccccc1)Nc1ccccc1C(=O)NC1CC1 (stereo unspecified) | -10 | 83 | 95 | ·
CCN(CC)C(=O)CSc1nc(O)cc(=O)n1-c1ccc(OC)cc1 | -17 | 105 | 84 | 102
O=C(Nc1ccc2c(c1)OCO2)c1cc(-c2cccnc2)on1 | -6 | · | · | 100
CC(C)(C)n1ncc(C#N)c1N | · | 109 | 90 | 102
COC(=O)c1ccccc1NC(=O)c1ccc2c(c1)CCN2S(=O)(=O)c1ccc(Cl)cc1 | -19&-22 | 104 | 86 | 103&97
COc1cc(S(=O)(=O)NCCc2c(C)[nH]c3c(Cl)cccc23)c(C)cc1C | -16 | · | · | 98
CCC(CO)n1c(SCn2nnc3ccccc3c2=O)nc2cc(OC)c(OC)cc2c1=O (stereo unspecified) | -13 | 96 | 96 | ·
O=C(CSc1ncccn1)c1ccc(C2CCCCC2)cc1 | -28 | 93 | 88 | ·
